# N370S GC: N370S glucocerebrosidase modulation, Gaucher chaperone candidate; N370S GC spleen homogenate, 4MU-glucoside fluorescence; Potency, µM (series often up to 59.4 µM), for inactives: top-dose activity change, negative = inhibition, hits mostly inhibitors; actives 0.092% (n = 330,000);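 note: 0% = full enzyme activity and -100% = no enzyme basal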
# FEN1 inhibitor: inhibitors of human flap endonuclease 1. P39748. Recombinant FEN1 flap cleavage, fluorescence, 15 min. Potency, µM (series often up to 114 µM), inactives show at the top dose activity change, negative = inhibition, usual class: inhibitors. actives 0.35% (n = 390,000); note: nearly all actives have a fitted effect of over 65% in size
# Target sequence (P39748 whole entry, looked up): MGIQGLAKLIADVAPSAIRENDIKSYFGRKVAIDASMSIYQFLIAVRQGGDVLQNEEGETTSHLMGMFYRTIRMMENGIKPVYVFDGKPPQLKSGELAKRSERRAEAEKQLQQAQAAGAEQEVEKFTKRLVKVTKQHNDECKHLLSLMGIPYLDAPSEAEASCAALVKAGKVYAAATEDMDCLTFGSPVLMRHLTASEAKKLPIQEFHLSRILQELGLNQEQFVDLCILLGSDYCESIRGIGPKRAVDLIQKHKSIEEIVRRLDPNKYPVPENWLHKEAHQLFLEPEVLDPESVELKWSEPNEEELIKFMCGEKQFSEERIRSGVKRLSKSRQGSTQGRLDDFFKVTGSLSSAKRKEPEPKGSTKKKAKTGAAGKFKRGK
#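 Recombinant FEN1 (10 nM) was preincubated with pin-transferred compounds for 15 min at room temperature, then flap DNA substrate (50 nM final) was added. Plates were read at 0 and 15 min, and normalized concentration–response data were fitted to a four-parameter Hill equation.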
# The depositor's hits bear a star; ? = inconclusive; . = no result given; & = joins results of further samples; [ ] = dose if it differs, or a comment. Calls come from the whole dose curve; as a rule, active = well fitted curve in the direction sought with a large enough effect; inconclusive = small, poorly fitted or top-dose-only effect, or another doubt; inactive = no such curve, though single readings can be large; an effect the other way counts as inactive or inconclusive. Unless noted, % is set by controls: 0 for no effect and ±100 for the full control effect; potency is the fitted concentration of half-maximal effect. A portion of the library, and most or all hits are left out here.
Structure	N370S GC	FEN1 inhibitor
CC(=O)Nc1ccc(S(=O)(=O)N2CCN(C(=O)c3ccccc3F)CC2)cc1	10%	-5%
COC(=O)C1=C(C)NC(=O)CC1c1cccc(OC)c1OC (centres undefined)	-12%	15%
O=C(NCCSc1ccc(Cl)cc1)c1ccc(CN2CCOCC2)cc1	-20%	-1%
O=c1cc(-c2ccc([N+](=O)[O-])cc2)nc2cc(-c3ccc(F)cc3)[nH]n12	5%	-1%
O=C(NCC1(O)CCCCC1)C1CCC(=O)N(Cc2cccc(C(F)(F)F)c2)C1 (centres undefined)	0%	4%
COc1cc(NC(=O)c2ccc(Cl)cc2Cl)ccc1-c1cc2ccccc2oc1=O	3%	2%
CCOC(=O)c1cc2c(=O)n3ccccc3nc2n(CCOC)c1=NC(=O)C(C)(C)C	?	8%
N#Cc1c(-c2ccc(Cl)cc2)ccnc1N1CCOCC1	-2%	-16%
COCCNC(=O)Cn1cc2c(n1)CCC(C)C2 (centres undefined)	15%	23%
Cc1cc(F)ccc1NC(=O)CCc1c(C)nn(-c2ccc(N3CCCCC3)nn2)c1C	-3%	-5%
O=C(c1c(F)cccc1F)N1CCCC1	?	-3%
COC(=O)N1CC=CC1(C)C(=O)NCc1cc(F)cc(C(F)(F)F)c1 (centres undefined)	2%&2%	2%
O=C(NC1CCCCC1)c1ccc(CS(=O)Cc2ccc(Cl)cc2)o1 (centres undefined)	-6%	21%
Cc1ccc(C(=O)N2CCC(C)CC2)cc1NC(=O)c1nsc2ccccc12	.	-19%
CC(=O)N1CC(C)Sc2ccc(S(=O)(=O)NC3CCCCC3)cc21 (centres undefined)	-13%	23%
Cc1cc(C)n(CCNC(=O)c2cc(COc3c(F)cccc3F)on2)n1	-9%	-12%
S=C(NCCc1ccc(Cl)cc1)NCc1ccccc1	3%	-5%
CSc1ncccc1C(=O)Nc1ccc(C)cn1	3%	-13%
CCNC(=O)NC(=O)C(C)OC(=O)c1ccc(-n2nc(SC)sc2=S)cc1 (centres undefined)	-6%	2%
COc1ccc(Nc2sc(C(=O)c3ccc(Cl)cc3)c(N)c2C(=O)Nc2ccccc2OC)cc1	1%	1%
CCNCc1nc2cc(OC)c(OC)cc2c(=O)[nH]1	2%	-3%
O=C(c1ccc(Cl)cc1Cl)N1CCSCC1	-6%	-2%
N#Cc1sc2nc(-c3cccs3)cc(-c3ccc(Cl)cc3)c2c1N	9%[12.8 µM]	-5%
O=C(Cc1cccs1)N1CCN(c2ccccn2)CC1	-12%[2.35 µM]	-4%
O=C(Cc1nnc(NC(=O)Nc2ccc(Cl)cc2)s1)NCc1ccccc1	6%	1%
CC(C)Cn1c(N2CCN(C(=O)c3cccs3)CC2)nc2ccccc21	-3%	-10%
CN(c1ccccc1)S(=O)(=O)c1cccc(NC(=O)c2ccc(=O)[nH]n2)c1	.	-5%
COC(=O)c1ccc(C2C(C#N)=C(N)Oc3cc(C)n(C)c(=O)c32)cc1 (centres undefined)	0%	-3%
O=C(CN1C(=O)NC(Cc2c[nH]c3ccccc23)C1=O)Nc1ccccc1Br (centres undefined)	.	3%
COc1cccc(CN(C)C(=O)C23CC4CC(CC(C4)C2)C3)c1	-11%	-3%

# Reformatted with two lines to a compound: part of the list above
# Every second line gives: N370S GC, FEN1 inhibitor
O=C(NCCSc1ccc(Cl)cc1)c1ccc(CN2CCOCC2)cc1
  -20%, -1%
O=c1cc(-c2ccc([N+](=O)[O-])cc2)nc2cc(-c3ccc(F)cc3)[nH]n12
  5%, -1%

# Next part:
Structure	N370S GC	FEN1 inhibitor
CC(CO)NCC12CC3CC(CC(C3)C1)C2 (centres undefined)	-7%	7%
Cc1onc(-c2ccccc2Cl)c1C(=O)Nc1ccc(CN2CCCC2)cc1	18%	-1%
O=C(CSc1ccc(Br)c2cccc(Cl)c12)Nc1ccc(S(=O)(=O)Nc2nccs2)cc1	-2%	-31%
CCOc1ccccc1NC(=O)c1ccc2c(c1)CCN2S(=O)(=O)c1ccc(C)cc1	.	-4%
O=C(NCc1ccccc1Br)c1ccncc1	-1%	-6%
O=C(CCCOc1cccc(Br)c1)NC1CCC(O)CC1 (centres undefined)	6%	23%
COC(=O)c1cnn(-c2cc(Oc3cccc(C)c3)ncn2)c1N	1%	6%
CCC(=O)N/N=C/c1ccc(-c2ccc([N+](=O)[O-])cc2)o1	-22%	-14%
O=C(c1nc2ccccn2c1CNCCCn1nnc2ccccc21)N1CCOCC1	2%	-2%
COc1ccc(OC)c(NC(=O)NCCc2cccc(Cl)c2)c1	10%	-1%
O=C(NC(=S)Nc1ccc(Br)cn1)c1cccnc1	6%	-9%
CC(=O)Nc1cccc(C(=O)NCC2(N3CCCCC3)CCCCC2)c1	0%	-1%
Cc1ccc(-c2nc(N/N=C/c3ccccc3[N+](=O)[O-])c3ccccc3n2)cc1	0%	0%
O=C(Nc1cccc(C(F)(F)F)c1)C1=CC=CN2CCS(=O)(=O)N=C12	.	11%
Cc1ccccc1C(=O)NC1CCN(C(=O)N(c2ccccc2)c2ccccc2)CC1	8%	-13%
CCOc1ccc(C(=O)Nc2ccc3nc(SCC(=O)N4CCOCC4)sc3c2)cc1	.	5%
CCN1CCN(c2ccc(NC(=O)c3cccc(F)c3)cc2Cl)CC1	-26%	-8%
Cc1ccc(C(=O)N2CCC3(CC2)Oc2ccc(F)cc2C(=O)C32CC(c3ccccc3)=NO2)s1 (centres undefined)	-2%	10%
COc1ccc([N+](=O)[O-])cc1N(CC(O)Cn1nnc2ccccc21)S(=O)(=O)c1ccc(C)cc1 (centres undefined)	1%	-2%
COC(=O)Cn1c(=O)sc2ccccc21	-4%	-7%
Cc1cc2oc(=O)cc(C)c2cc1NC(=O)CCl	-12%	13%
COc1cccc(/C=N/NC(=O)c2c(C)nc3ccc(Br)cn23)c1	-5%	-4%
CCc1cccc(NC(=O)c2ccc3c(=O)n4nc(Nc5ccccc5OC)sc4nc3c2)c1	.	16%
COc1cccc(NC(=O)CCSc2ccc(C)cc2)c1	5%	-4%
CCCCNC(=O)C1CCN(C/C(C)=C/c2ccccc2)CC1	2%	0%
COc1ccc(NC(=S)N/N=C/c2cccn2Cc2ccc(F)cc2)cc1	7%	1%
CCCC1(C(=O)OCC)NC(c2ccc(N(C)C)cc2)C2C(=O)N(c3ccc4c(c3)OCCO4)C(=O)C21 (centres undefined)	-2%	15%
O=C(COC(=O)Cc1n[nH]c(=O)c2ccccc12)NNC(=O)c1ccc(Br)cc1	.	-2%
Cc1ccc(NC(=O)c2cnccn2)nc1	4%	-9%
CC(C)OC(=O)CCC/C=C\C[C@@H]1[C@@H](CC[C@@H](O)CCc2ccccc2)[C@H](O)C[C@@H]1O	-12%	.
CN(C)/C=C/C(=O)c1cnc(-c2ccc(Cl)cc2)s1	0%	-1%
COc1ccc(-c2nn(C)c(=O)c3ccccc23)cc1NS(C)(=O)=O	3%	6%
NC[C@@H]1O[C@H](O[C@H]2[C@@H](O)[C@H](O[C@@H]3[C@@H](O)[C@H](N)C[C@H](N)[C@H]3O[C@H]3O[C@H](CO)[C@@H](O)[C@H](O)[C@H]3N)O[C@@H]2CO)[C@H](N)[C@@H](O)[C@@H]1O	12%	.
Cn1c(CC(=O)Nc2ccccc2F)nnc1SCC(=O)N1CCOCC1	-16%	16%
CC(NC(=O)c1ccc2c(c1)OCO2)c1ccccc1 (centres undefined)	-12%	-1%
S=c1[nH]nc(-c2ccc(Cl)cc2Cl)n1Cc1ccccc1	8%	4%
Cc1nn2c(N3CCN(c4ccccn4)CC3)cc(C(C)C)nc2c1-c1ccccc1	7%	-13%
COc1ccccc1NC(=O)c1[nH]c(C)c(C(C)=O)c1C	9%	-3%
CCc1ccccc1OCCCCCNCCO	-7%	2%
Cc1ccc(C(=O)O)cc1NC(=S)NC(=O)C(c1ccccc1)c1ccccc1	-7%	-6%
CCCOc1nc(SCCC)nc2c1cnn2-c1ccccc1	-1%	3%
O=C(OCc1nc2scc(-c3ccccc3)c2c(=O)[nH]1)c1cccc([N+](=O)[O-])c1	-1%	-17%
CC1CCN(C(=O)Cn2c(=O)n(-c3ccc(F)cc3)c(=O)c3sccc32)CC1	-5%	21%
c1ccc(OCCOCCN2CCc3ccccc3C2)cc1	-5%	-13%
NS(=O)(=O)c1ccc(NC(=O)CSc2nc3c(c(=O)[nH]2)CCCC3)cc1	9%	-4%
O=C(NCCc1csc(-c2cccnc2)n1)c1cccc(Cl)c1	1%	-8%&-5%
Cc1ccc(OCC(=O)Nc2ccc3c(c2)OCCO3)cc1C	8%	-3%
O=S(=O)(Nc1ccc(Oc2ncccn2)c(Cl)c1)c1ccc(Cl)cc1	-5%	16%
CCCCn1nnc(NC(=O)c2sc3cc(Cl)ccc3c2Cl)n1	11%	-17%
CCc1ccccc1NC(=O)c1cc(S(=O)(=O)N(C)C)ccc1N1CCCC1	-1%	-1%

# A draw from above in order of formula weight, low to high.
Structure	N370S GC	FEN1 inhibitor
Cc1ccc(OCC(=O)Nc2ccc3c(c2)OCCO3)cc1C	8%	-3%
CC1CCN(C(=O)Cn2c(=O)n(-c3ccc(F)cc3)c(=O)c3sccc32)CC1	-5%	21%
O=C(OCc1nc2scc(-c3ccccc3)c2c(=O)[nH]1)c1cccc([N+](=O)[O-])c1	-1%	-17%

# Next section
Structure	N370S GC	FEN1 inhibitor
COC(=O)c1cc(C(=O)OC)cc(N2C(=O)CC(Sc3nc(C)cc(C)n3)C2=O)c1 (centres undefined)	-3%	9%
CCOC(=O)Cc1cnc(NC(=O)CSc2nc(N)cc(N)n2)s1	-7%	2%
COc1ccc(C(=O)NNC(=O)CCn2nnc(-c3ccc(Cl)cc3)n2)cc1OC	-2%	-6%
CCCCC/C=C\C/C=C\C/C=C\CCCCCCC(=O)O	2%&-12%	.
Cc1ccc(C(C)C)cc1OCCOCCN1CCCC1	0%	-11%
S=C(Nc1ccccc1Cl)N(CCN1CCCCC1)Cc1ccco1	-3%	-8%
CCOc1ccc(S(=O)(=O)NCC(=O)NC2CCCCC2)cc1	.	-4%
O=C(Nc1ccc(F)cc1)c1oc2ccccc2c1NC(=O)C1CC1	-10%	-11%
COc1ccc(CNC(=O)c2ccc3c(c2)N(C)C(=O)C2CCCCN32)cc1OC (centres undefined)	.	1%
CCOC(=O)COn1c2c(c3c4no[n+]([O-])c4ccc31)CCCC2	7%	-2%
CCOc1cc(NC(=S)Nc2ccccc2)c(OCC)cc1NC(=O)c1ccc(OC)cc1	3%	-17%
CCNC(=O)CC1SC(=Nc2ccc(C)cc2)N(CC)C1=O (centres undefined)	7%	-1%
Cc1cc2c(cc(C(=O)N3CCC(C(=O)N4CCCC4)CC3)n2Cc2c(F)cccc2Cl)o1	-8%	12%
Cc1ccc(-c2nnc(NC3CCCCC3)c3ccccc23)cc1S(=O)(=O)N1CCN(C)CC1	1%	3%
CC1CCN(S(=O)(=O)c2ccc(C(=O)Nc3sc4c(c3C(N)=O)CC(C)(C)NC4(C)C)cc2)CC1	.	-5%
O=C(CCCC(=O)OCC(=O)c1cccs1)Nc1ccc(Oc2ccccc2)cc1	15%	-11%
CC(C)(C)c1ccc(C(=O)Nc2cc(-c3nc4ccccc4o3)ccc2Cl)cc1	.	-5%
CCOC(=O)N1CCC(Nc2c(NCCCN(CC)CC)c(=O)c2=O)CC1	4%	3%
CCn1cc([N+](=O)[O-])c(C(=O)Nc2c(C)nn(Cc3cccc(F)c3)c2C)n1	-3%	-13%
Cc1ccc(S(=O)(=O)N(C)CCCC(=O)Nc2cc(C)ccc2C)cc1	7%	16%
CN(C)CCCNc1c2c(c(C#N)c3nc4ccccc4n13)CCC2	1%[2.35 µM]	.
Cc1ccc(S(=O)(=O)N2CCCCC2)cc1C(=O)NCCC1=CCCCC1	2%	1%
CCOC(=O)c1c(NC(=O)c2nn(CC)cc2Br)c(C#N)nn1-c1ccccc1	?	-15%
COC(=O)c1nn(-c2ccc3c(c2)OCO3)cc1O	-21%	-1%
COC(=O)C1=C(C)N(Cc2ccccc2)C(=NCC(C)C)N[C@H]1c1cccc(F)c1	-11%	11%
CCc1cc2ccccc2nc1SCC(=O)NC1CCCC1	5%	2%
CCCCC(=O)NC(=S)Nc1ccc(NC(=O)C(C)C)c(OC)c1	9%	12%
Cc1ccc(C2CCN(C(=O)c3cnn(-c4ccc(C)cc4)c3C3CCN(C(=O)OC(C)(C)C)CC3)C2)cc1 (centres undefined)	.	-10%
CC(C)=CCC/C(C)=C/CCC(C)NCCN1CCNCC1 (centres undefined)	-11%	.
CCC1(C)Cc2ccccc2-c2nc(NCCO)n(-c3ccc(C)cc3)c(=O)c21 (centres undefined)	13%	-1%
Cc1cc(NC(=O)C2C3C(=O)N(c4cccnc4)C(C(=O)NC(C)(C)C)C34C=CC2(C)O4)no1 (centres undefined)	1%	6%
COc1ccc(CNC(=O)N[C@@H](CC(C)C)C(=O)O)cc1OC	-6%	-4%
CC(OC(=O)c1ccc(S(=O)(=O)N2CCCCC2)cc1)C(=O)Nc1ccc(C(N)=O)cc1 (centres undefined)	.	-6%

# Quoted from the listing.
# In FEN1 inhibitor, CC(=O)Nc1ccc(S(=O)(=O)N2CCN(C(=O)c3ccccc3F)CC2)cc1 is entered as -5%
# In N370S GC, Cc1ccc(OCC(=O)Nc2ccc3c(c2)OCCO3)cc1C is entered as 8%
# In N370S GC, CC(C)=CCC/C(C)=C/CCC(C)NCCN1CCNCC1 (centres undefined) is entered as -11%
